INS promoter inh: inhibitors of insulin promoter-driven GFP, primary screen, imaging, TRM-6 cells (human fetal islet line), eGFP reporter, cell count. inhibition, % at 2 µM. reporter expression induced with tamoxifen. actives 0.9% (n = 130,000);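 active = inhibition above the mean plus 3 SD, with well images judged a real hit on visual review, cut at about 60% in these data, passing the limit was not always enough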
PKD1 kinase inh: inhibitors of human PKD1 kinase, biochemical, fluorescence polarization; PKD1 kinase fluorescence polarization assay; inhibition, %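 (about 10 µM by stock and volumes)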; actives 0.056% (n = 200,000); AID 797, 2007;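 active = inhibition of 50% or more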;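 also: controls were vehicle for no effect and a reference inhibitor for full effect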
Target sequence (Q15139 whole entry, looked up): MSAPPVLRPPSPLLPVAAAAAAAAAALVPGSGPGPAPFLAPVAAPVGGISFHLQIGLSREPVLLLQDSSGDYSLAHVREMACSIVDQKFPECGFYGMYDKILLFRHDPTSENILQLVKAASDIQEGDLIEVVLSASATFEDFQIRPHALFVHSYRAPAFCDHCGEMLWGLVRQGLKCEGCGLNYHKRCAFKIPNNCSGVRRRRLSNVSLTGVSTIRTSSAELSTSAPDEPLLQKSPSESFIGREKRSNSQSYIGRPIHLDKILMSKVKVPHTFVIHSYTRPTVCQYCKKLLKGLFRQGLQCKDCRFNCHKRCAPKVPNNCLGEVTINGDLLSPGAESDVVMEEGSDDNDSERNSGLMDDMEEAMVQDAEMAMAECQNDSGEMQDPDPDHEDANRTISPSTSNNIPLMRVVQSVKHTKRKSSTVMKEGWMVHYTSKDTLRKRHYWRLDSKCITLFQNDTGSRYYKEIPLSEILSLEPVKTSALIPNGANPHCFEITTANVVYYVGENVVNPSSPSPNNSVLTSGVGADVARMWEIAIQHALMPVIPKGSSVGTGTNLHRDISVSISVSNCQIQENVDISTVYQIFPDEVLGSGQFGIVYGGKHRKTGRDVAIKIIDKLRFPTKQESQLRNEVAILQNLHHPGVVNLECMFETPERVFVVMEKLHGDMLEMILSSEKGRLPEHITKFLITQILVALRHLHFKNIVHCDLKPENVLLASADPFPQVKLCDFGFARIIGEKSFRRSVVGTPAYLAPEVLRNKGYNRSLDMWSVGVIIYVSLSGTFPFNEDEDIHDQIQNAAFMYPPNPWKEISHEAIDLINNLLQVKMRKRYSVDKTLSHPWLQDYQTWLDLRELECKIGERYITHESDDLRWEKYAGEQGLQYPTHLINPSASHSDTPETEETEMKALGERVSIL
RGS16-Gao: modulators of RGS16 binding to Galphao, primary screen, biochemical, human proteins, multiplexed bead flow cytometry | Regulator of G-protein signaling 16 (Homo sapiens) + Guanine nucleotide-binding protein … | bead-based flow cytometry RGS16-Galphao binding, fluorescence; actives lie on both sides | binding response (% of control), % at 10 µM | actives 0.38% (n = 220,000) | AID 1441, 2008;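 active = below 25% or above 175%, edge rows of some plates excepted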;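 also: Galphao activated by GDP with aluminum fluoride before binding; 100% = wells without compound and 0% = beads without RGS; some results beyond the cut were filed as inactive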
HSV augment: enhancers of HSV replication in host cells, fold increase, host cell viability. maximum fold increase. actives 0.005% (n = 220,000). AID 1956, 2009. HSV replication augmentation in cells;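 active = peak rise of 1.5-fold or more in the series; tested in PC3 cells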;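 also: first round at 10 µM; read as green reporter fluorescence; hits show the peak of a series up to 25 µM; 1 = signal of infected wells without compound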
GALR2 agonist: GALR2 receptor agonists, primary screen, cell-based; Galanin receptor type 2 (Homo sapiens), O43603; GALR2-expressing cells, agonist activation read-out; activation, %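 (tested at 5 µM)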; actives 0.48% (n = 140,000);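 active = above mean plus 3 SD of all compounds, about 5% in these data, not always enough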;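 also: 0% = vehicle buffer wells and 100% = reference agonist at full effect; tested in CHO reporter cells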
INS promoter inh cell count: also measured in INS promoter inh; calls as there; normalized cell count, %; measured here: cell count, toxicity; reference of the scale not given here;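 cells exposed to compound for 48 h; stained nuclei by imaging scaled within each plate; lower means fewer cells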
HSV augment primary fold: second read-out of HSV augment, no call of its own (marks repeat the call); fold increase; compound at 10 µM; measured here: primary screen fold increase 10 uM; tested in PC3 cells;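 GFP signal in the first replicate; 1 = infected wells without compound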
An asterisk follows results filed as active; i = inactive; nt = no result given; & = joins results of further samples.

SMILES	INS promoter inh	INS promoter inh cell count	PKD1 kinase inh	RGS16-Gao	HSV augment	HSV augment primary fold	GALR2 agonist
COc1ccc(S(=O)(=O)N2CC(O)C[C@H]2C(=O)OCC(=O)N2CCCCCC2)cc1 (some centres undefined)	nt	nt	2	91	i	1.1	nt
CNS(=O)(=O)c1cccc(C(=O)OCC(=O)Nc2ccc(N3CCCCC3)cc2)c1	nt	nt	-5	102	i	0.94	nt
CCOC(=O)c1cnn(-c2cc(Oc3ccccc3C)ncn2)c1N	10	178	-5	88	i	0.94	-0.7
Cc1ccc(CNc2ccc(N3C(=O)CCCC3=O)cc2[N+](=O)[O-])cc1	-25	105	-2	102	i	0.95	0.7
CCOC(=O)C1=C(C)N(c2ccccc2)C(=O)C1	47	125	-2	97	i	0.85	-0.2
COC(=O)c1c(NC(=O)CSc2nc3nc(C)cc(C)n3n2)sc(C)c1C	4	122	-8	103	i	0.88	-0.6
CCOC(=O)c1cc(-c2ccc(C)cc2)n(CCC(=O)NCCCOC)c1C	-9	107	-6	121	i	0.83	0.9
c1cncc(-c2nc(-c3ccc4c(c3)OCO4)cs2)c1	52	105	1	98	i	1.1	-2.4
CCOc1ccc(-n2nc3c(Cl)nnc(C)c3c2C)cc1	15	128	-11	101	i	1	-1.6
Cn1cc(SCC(=O)NCCc2ccccc2)c2ccccc21	30	116	-2	96	i	1.1	nt
CCOC(=O)C(C)N1C(=O)S/C(=C/c2ccc3c(c2)n(C)c(=O)n3C)C1=O (centres undefined)	nt	nt	-11	103	i	1	nt
CCn1c(SCC(=O)OC)nnc1C1CCCCC1	-19	272	-6	100	i	0.89	-2.3
Nc1nc(CN2CCN(c3cccc(Cl)c3)CC2)nc(N2CCCc3ccccc32)n1	-12	106	-10	100	i	0.91	-1.6
N#Cc1cc(-c2ccccc2)nc(NN)n1	nt	nt	nt	114	i	1.2	nt
COC(=O)/C=C1\N/C(=N\c2nc(C)cc(C)n2)N(c2ccccc2)C1=O	nt	nt	nt	103	i	0.96	nt
O=C(c1cc(-c2ccccc2)on1)N1CCN(Cc2ccc3c(c2)OCO3)CC1	28	143	-7	100	i	1	-1.9
Cc1ccc(C)c(NC(=S)NNC(=O)c2cc3c(s2)CCC(C)C3)c1 (centres undefined)	nt	nt	2	102	i	1.1	-0.1
O=C(N/N=C/c1cc(Cl)ccc1O)C(=O)Nc1ccccc1OC(F)(F)C(F)F	-34	87	-8	88	i	0.7	-1.4
O=C(O)CNC(=O)CC1S/C(=N/N=C2/NC(=O)CS2)NC1=O (centres undefined)	-43	77	1	117	i	1.2	nt
CC(C)(C)c1ccc(C(=O)Nc2sc3c(c2C(=O)O)CCC3)cc1	-30	41	-3	61	i	0.95	nt
COc1cccc(OCCOc2c(OC)cccc2OC)c1	28	167	-6	115	i	0.97	-1.5
CC(NC(=O)c1ccc2c(c1)OCO2)C(c1cccs1)N1CCN(c2ccccc2)CC1 (centres undefined)	nt	nt	nt	101	i	1.1	nt
CNS(=O)(=O)c1ccc(NC(=O)c2ccoc2C)cc1	nt	nt	-9	99	i	0.97	nt
COc1ccccc1N/N=C(\C#N)C(=N)N1CCOCC1	-7	115	-1	96	i	0.97	nt
COc1ccc(-c2cc3nc(C)cc(C)n3n2)cc1	25	131	-3	100	i	0.77	-3.1
Cc1ccc(C)c(-n2c(CNC(=O)c3ccco3)nnc2SCC(=O)Nc2nccs2)c1	-33	101	-8	93	nt	nt	-3.4
CN(C)/C=C(\C#N)C(=O)c1cccnc1Oc1ccc(F)cc1F	-71	37	-4	112	i	1	-2.3
COc1ccccc1CNC(=O)C1=CCN(S(=O)(=O)c2ccc(C)cc2)CC1	nt	nt	nt	107	i	0.97	nt
O=C(NCC1(N2CCOCC2)CCCCC1)c1ccc(Cl)c(S(=O)(=O)NCc2ccco2)c1	nt	nt	-1	109	i	0.86	-1.6
CCCn1c(N)c(NCCN2CCOCC2)c(=O)[nH]c1=O	-25	54	-2	108	i	1.1	nt
Cc1cc(=O)[nH]c(N/N=C/c2ccc(OC(=O)c3ccco3)cc2)n1	11	103	-12	95	i	1	-0.6
COc1ccc(-c2cc(C(=O)Nc3ccccc3F)on2)cc1	-7	131	7	113	i	0.92	nt
O=C(COC(=O)C1CC2C=CC1C2)NCCc1ccccc1 (centres undefined)	-41	33	-7	90	i	0.93	nt
CCOC(=O)C1=C(C)N(C)C(=S)NC1c1ccccc1 (centres undefined)	nt	nt	-3	97	i	0.91	0.9
CCOc1ccc(/C(O)=C2/C(=O)C(=O)N(c3nc(C)c(C)s3)C2c2ccco2)cc1 (centres undefined)	nt	nt	-5	106	i	1.1	-1.1
O=C(CN1CCc2ccccc21)NN1CC(=O)N(c2ccc(Cl)cc2)CC1=O	nt	nt	nt	102	i	1.2	nt
CCCCCc1cc(=O)oc2c(C(CCN3CCCC3)c3cc(OC)c(OC)c(OC)c3)c(OC)cc(OC)c12 (centres undefined)	nt	nt	nt	94	i	0.61	nt
COP(=O)(CC(=O)c1ccccc1)CC(=O)c1ccccc1	nt	nt	-7	93	i	0.95	nt
COc1ccccc1N=Cc1nc(-c2ccccc2)oc1OC(C)=O	18	122	-5	102	i	0.98	-1.0
COC(=O)Cc1csc(N)n1	-24&-23	66	-7&-5	99&111	i	1&0.92	-1.3&-0.3

3 entries already listed, sorted by number of heavy atoms, ascending:
SMILES	INS promoter inh	INS promoter inh cell count	PKD1 kinase inh	RGS16-Gao	HSV augment	HSV augment primary fold	GALR2 agonist
COc1cccc(OCCOc2c(OC)cccc2OC)c1	28	167	-6	115	i	0.97	-1.5
CN(C)/C=C(\C#N)C(=O)c1cccnc1Oc1ccc(F)cc1F	-71	37	-4	112	i	1	-2.3
COc1ccccc1CNC(=O)C1=CCN(S(=O)(=O)c2ccc(C)cc2)CC1	nt	nt	nt	107	i	0.97	nt

Next compounds follow.
SMILES	INS promoter inh	INS promoter inh cell count	PKD1 kinase inh	RGS16-Gao	HSV augment	HSV augment primary fold	GALR2 agonist
O=C1C(Nc2ccccc2)=CC(c2ccc(O)cc2)N1c1ccccc1 (centres undefined)	nt	nt	nt	99	i	1	nt
O=C(c1ccc([N+](=O)[O-])cc1)n1nc(-c2ccccc2)nc1NCc1ccccc1	-12	99	-5	83	nt	nt	-3.3
CC(O)CNc1nc2sc3c(c2c(=O)n1CCc1ccccc1)CCCCC3 (centres undefined)	16	119	-6	99	i	0.91	0.3
CC(CCc1ccccc1)NC(=O)C1CCN(S(=O)(=O)c2cnc[nH]2)CC1 (centres undefined)	-25	142	-4	99	i	1.1	-2.2
COc1cccc(C(=O)Nc2ccc3nc(N4CCN(c5ncccn5)CC4)cc(C)c3c2)c1OC	22	137	8	106	i	0.43	0.7
COc1cc(-c2cc(C(=O)Nc3ccc(S(=O)(=O)Nc4ncccn4)cc3)c3ccccc3n2)cc(OC)c1OC	nt	nt	nt	107	i	1.4	nt
COC(=O)c1[nH]c2c(c1C)C(=O)CCC2	nt	nt	4	101	i	0.79	-0.8
Cc1ccc(CN2CCN(Cc3cnn(-c4ccc(F)cc4)c3)CC2CCO)o1 (centres undefined)	nt	nt	8	101	i	1.1	nt
CC1CCN(Cc2csc(N)n2)CC1	-19	51	-2	101	i	0.87	-0.1
CCOC(=O)c1c(-c2cccc([N+](=O)[O-])c2)cn2ccccc12	nt	nt	-1	109	i	1	nt
O=C1c2oc3ccc(F)cc3c(=O)c2C(c2cccc(O)c2)N1CCCN1CCOCC1 (centres undefined)	-10	46	-4	109	i	1	-0.8
O=C(COC(=O)c1ccco1)c1ccc2ccccc2c1	48	121	-3	100	i	1.1	-0.8
C=CCc1ccc(OCCOCCNCCCC)c(OC)c1	26	93	-1	98	i	0.94	-2.1
C=CCN(CC=C)S(=O)(=O)c1ccc(NC(=S)NC(=O)/C=C/c2cccc3ccccc23)cc1	9	117	-2	101	i	0.91	0.5
Cc1noc(NS(=O)(=O)c2ccc(N3Cc4ccccc4C3=O)cc2)c1C	36	123	-7	59	i	1.1	0.6
Cc1ccc(CN2CCN(Cc3ccc(-n4cccn4)cc3C)CC2CCO)cc1 (centres undefined)	nt	nt	1	105	i	0.87	nt
Cc1ccc(N(Cc2ccccc2F)S(C)(=O)=O)cc1C	43	131	-4	106	i	1.2	-0.4
N/C(=N\OC(=O)/C=C/c1ccccc1Cl)c1ccccn1	nt	nt	5	107	i	0.91	nt
COc1ccc2oc(=O)c(C(=O)OCC(=O)c3ccc([N+](=O)[O-])cc3)cc2c1	nt	nt	-6	90	i	1	nt
CCc1ccc(/C=C2/C(=O)N(c3ccccc3)C(=S)N2CC(=O)OC)s1	nt	nt	-4	99	i	1	0.4

Shown with two lines to a compound: 4 of the compounds above
Order of results – INS promoter inh, INS promoter inh cell count, PKD1 kinase inh, RGS16-Gao, HSV augment, HSV augment primary fold, GALR2 agonist
COc1ccc2oc(=O)c(C(=O)OCC(=O)c3ccc([N+](=O)[O-])cc3)cc2c1
  nt, nt, -6, 90, i, 1, nt
CC1CCN(Cc2csc(N)n2)CC1
  -19, 51, -2, 101, i, 0.87, -0.1
CCc1ccc(/C=C2/C(=O)N(c3ccccc3)C(=S)N2CC(=O)OC)s1
  nt, nt, -4, 99, i, 1, 0.4
Cc1ccc(N(Cc2ccccc2F)S(C)(=O)=O)cc1C
  43, 131, -4, 106, i, 1.2, -0.4

The results go on.
SMILES	INS promoter inh	INS promoter inh cell count	PKD1 kinase inh	RGS16-Gao	HSV augment	HSV augment primary fold	GALR2 agonist
Cc1ccccc1C(=O)N1CCN(c2ccc(NC(=S)NC(=O)c3cccs3)cc2)CC1	nt	nt	-6	100	i	0.81	nt
CS(=O)(=O)N(CC(=O)O)c1ccc2c(c1)OCO2	18	73	-1	104	i	0.88	-1.3
COc1ccc(C(=O)Nc2cccnc2)cc1S(=O)(=O)N1CCOCC1	nt	nt	-12	73	i	0.95	-0.7
COC(=O)C1=C(C)NC(=O)CC1c1cc2c(cc1Br)OCO2 (centres undefined)	-19	125	-14	103	i	0.91	-1.1
C/C(=N/NC(N)=S)c1ccccc1[N+](=O)[O-]	nt	nt	1	102	i	1	-2.7
CN(C(=O)CSc1nnc(N)s1)c1c(N)n(Cc2ccccc2)c(=O)[nH]c1=O	2	144	-9	99	i	1.2	-0.9
CN(C(=O)CS(=O)(=O)c1cn(CC(=O)N2CCOCC2)c2ccccc12)c1ccccc1	11	112	-7	103	i	0.98	nt
CC(C)COC(=O)/C(C#N)=C/c1c[nH]c2ccccc12	nt	nt	-15	103	i	0.96	0.4
Cc1ccccc1Oc1ccc(Oc2ccccc2C)nn1	nt	nt	-4	121	i	0.94	-2.2
COc1ccc(CN2CCC(CO)(Cc3ccccc3C(F)(F)F)CC2)c(F)c1	nt	nt	1	100	i	0.96	nt
c1ccc2[nH]c(NCCN3CCOCC3)nc2c1	0	84	-3	100	i	0.98	-1.4
O=c1c2ccccc2c2c(O)nc(-c3ccccc3)n2n1Cc1ccccc1	-42	102	3	107	i	1	0.0
O=C(NC1CCCc2ccccc21)c1ccc2c(c1)OCO2 (centres undefined)	nt	nt	1	103	i	0.82	nt
FC(F)(F)COc1ccc(-c2nnc(SCc3ccccc3)o2)cn1	nt	nt	nt	102	i	1.1	nt
Cc1noc(C)c1CN(C(=S)NC(C)C)c1ccccc1	nt	nt	4	103	i	0.87	-1.5
Cc1cccc(C(=O)NNC(=O)c2ccco2)c1	25	152	13	107	i	0.97	-1.1
CCCN(CCC)CCCNC(=O)c1cc2cc3ccc(OC)cc3nc2o1	-9	88	-5	100	nt	nt	-0.4
CN(C)CCCNc1oc(-c2cccc(Cl)c2)nc1C#N	-79	80	-7	103	i	1	-1.9
CCOC(=O)C1CCN(C(=O)Nc2ccc(OC(F)(F)F)cc2)CC1	nt	nt	nt	89	i	1	nt
COC(=O)c1sccc1NC(=O)CC1C(=O)NCCN1C(=O)Nc1ccc(OCc2ccccc2)cc1 (centres undefined)	nt	nt	nt	94	i	0.73	nt
CCNC(=O)CSc1nc(-c2ccccc2)cs1	-83	48	4	116	i	1	nt
Cc1ccc(/C=N/n2c(-c3cccs3)n[nH]c2=S)cc1	19	113	-12	96	i	0.77	-1.3
O=C(Cc1ccccc1)N/N=C/c1ccccc1Cl	-13	150	-13	102	i	0.83	-2.1
Cc1nn(-c2ccccc2)c(N2CCCC2)c1/C=N/NC(=S)Nc1ccccc1F	nt	nt	1	104	i	0.84	-0.5
COc1ccc([C@H]2[C@H](C(=O)OC(C)(C)C)N3N=Cc4ccccc4C3C23C(=O)c2ccccc2C3=O)c(OC)c1 (some centres undefined)	-50	100	4	101	i	0.7	-0.1
CCCS(=O)(=O)N1CCC(C(=O)NCCN(CC)c2ccccc2)CC1	nt	nt	-8	102	i	0.95	-3.4
